Assay outcomes deposited in PubChem by National Center for Advancing Translational Sciences (NCATS).
Lassa entry inh = blocks Lassa virus binding to or entry into cells; Lassa virus pseudotype entry inhibition, cell reporter; control for the full effect not named in the record; Potency, µM (doses to about 37.9 µM), for the others: top-dose activity change, negative = inhibition, hits mostly inhibitors; 300,000 compounds, 1.2% hits; AID 540256; active means well fitted inhibition curve with a large enough effect; inconclusive means small, poorly fitted or top-dose-only effect, or effect the other way; inactive means flat fitted curve, though single readings scatter; tested in HEK293 cells; further: on the % scale 0 is the no-effect control and ±100 the full control effect; nearly all actives have a fitted effect of over 50% in size; luciferase read-out
Marburg entry inh = inhibitors of Marburg virus binding or cell entry; 300,000 compounds, 1.8% hits; Marburg virus pseudotyped entry inhibition, cell reporter; control for the full effect not named in the record; about a third of the inactives were read at about 46 µM; Potency, µM (series often up to 37.8 µM), for the others: at the top dose activity change, negative = inhibition, usual class: inhibitors; active = well fitted inhibition curve with a large enough effect; inconclusive = small, poorly fitted or top-dose-only effect, or effect the other way; inactive = flat fitted curve, though single readings scatter; tested in HEK293 cells; about a fifth of its hits are not listed in these tables; further: on the % scale 0 is the no-effect control and ±100 the full control effect; luciferase read-out
NS1 inh = blocks influenza NS1 protein function. AID 2326. 270,000 compounds, 0.4% hits. S. cerevisiae slowed by influenza A NS1, growth recovery by OD600. Potency, µM (highest dose often 46.1 µM), inactives show at the highest dose activity, positive = more growth; active means well fitted rising curve with a large enough effect; inconclusive means small, poorly fitted or top-dose-only effect; inactive means no such curve, though single readings can be large or run the other way; further: nearly all actives have a fitted effect of over 50% in size
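Recovery from NS1-induced slow growth read by OD600 in budding yeast switched to galactose assay medium (pH 6.0, -URA) at 1:100 dilution. Compound 23 nl per well; the matching strain lacking NS1 serves as control.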
Cruzain Triton = blocks cruzain activity in presence of Triton detergent; P25779; purified cruzain, Z-FR-AMC fluorescence, 0.01% Triton; Potency, µM, for the others: max response, negative = inhibition, actives largely listed as inhibitors; 200,000 compounds, 0.43% hits; AID 1478;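 further: plate controls were neutral wells for no effect and buffer without enzyme for full effect; nearly all actives have a fitted effect of over 40% in size; top concentration of the series not given in the record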
Target sequence (P25779 123-467 limits assumed): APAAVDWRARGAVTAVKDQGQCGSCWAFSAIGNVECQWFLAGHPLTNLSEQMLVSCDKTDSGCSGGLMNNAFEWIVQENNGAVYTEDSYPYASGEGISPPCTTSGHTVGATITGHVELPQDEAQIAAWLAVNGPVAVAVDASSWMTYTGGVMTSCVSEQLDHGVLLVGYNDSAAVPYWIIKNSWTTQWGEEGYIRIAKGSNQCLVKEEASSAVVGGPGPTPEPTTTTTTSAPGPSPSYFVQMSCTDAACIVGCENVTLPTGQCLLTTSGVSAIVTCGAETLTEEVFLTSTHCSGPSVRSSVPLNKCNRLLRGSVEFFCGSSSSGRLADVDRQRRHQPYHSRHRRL
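Compounds were screened in titration against cruzain (1.5 nM) with 0.01% Triton X-100 to counter colloidal aggregation. Activity was the AMC fluorescence increase over 60 s after adding 2 uM Z-FR-AMC at pH 5.5.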
2A StopGo = lowers the luciferase signal of an FMDV 2A StopGo reporter; AID 1159524; Potency, µM (titrated, usually from 57.9 µM), inactives show top-dose signal change, negative = less light; human cells with a luciferase reporter of 2A StopGo recoding; control for the full effect not named in the record; 410,000 compounds, 1.2% hits; active = well fitted falling curve with a large enough effect; inconclusive = small, poorly fitted or top-dose-only effect; inactive = no such curve, though single readings can be large or run the other way; tested in HEK293T cells; further: on the % scale 0 is the no-effect control and ±100 the full control effect; nearly all actives have a fitted effect of over 45% in size; luciferase light after 4 h
SARS PLP yeast = blocks SARS-CoV papain-like protease in a yeast assay. 330,000 compounds, 0.19% hits. S. cerevisiae expressing SARS-CoV PLpro, growth rescue; control for the full effect not named in the record. AID 485353. Potency, µM (top dose mostly 32.9 µM), for the others: top-dose activity, positive = growth rescue; active means well fitted rising curve with a large enough effect; inconclusive means small, poorly fitted or top-dose-only effect; inactive means no such curve, though single readings can be large or run the other way; further: 0% is about no effect; nearly all actives have a fitted effect of over 55% in size; growth read by luminescence after 48 h
Cruzain inh noDet = inhibitors of Trypanosoma cruzi cruzain without detergent; purified cruzain, Z-FR-AMC fluorescence, no detergent; P25779; 200,000 compounds, 2.3% hits; AID 1476; Potency, µM, for inactives: max response, negative = inhibition, most hits filed as inhibitors;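 further: plate controls were enzyme without inhibitor for no effect and buffer without enzyme for full effect; nearly all actives have a fitted effect of over 40% in size; top concentration of the series not given in the record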
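Purified cruzain at 1.5 nM, pre-incubated 15 min with compound at room temperature in 100 mM sodium acetate pH 5.5, 5 mM DTT, 0.00005% Triton X-100. Reaction started with 2 uM Z-FR-AMC; AMC fluorescence increase over 60 s gives rate.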
RE007 growth inh = less growth of the S. pombe RE007 Vpr strain. S. pombe RE007 Vpr strain, BacTiter-Glo ATP luminescence, 24 h; control for the full effect not named in the record. AID 651644. 360,000 compounds, 0.21% hits. Potency, µM (series often up to 92.2 µM), without a hit: top-dose activity change, negative = less growth; active = well fitted falling curve with a large enough effect; inconclusive = small, poorly fitted or top-dose-only effect; inactive = no such curve, though single readings can be large or run the other way;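 further: on the % scale 0 is the no-effect control and ±100 the full control effect; nearly all actives have a fitted effect of over 50% in size; the assay follows cell death caused by Vpr and the record does not say whether a fall means rescue or toxicity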
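Fission yeast RE007 carrying one integrated HIV-1 vpr copy, seeded at OD 0.01 in PMG+AL medium with 23 nL pinned compound. Grown 24 h at 30 degrees; viability read by BacTiter-Glo luminescence after 5 min.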
* hit, by the source's call; ? = inconclusive; . = no result given; & = joins results of further samples; [ ] = dose if it differs, or a comment. Unless noted, the call rests on the fitted dose curve; in most records, active means well fitted curve in the direction sought with a large enough effect; inconclusive means small, poorly fitted or top-dose-only effect, or another doubt; inactive means no such curve, though single readings can be large; an effect the other way counts as inactive or inconclusive. Potency means the concentration at half of the fitted maximal effect.

SMILES	Lassa entry inh	Marburg entry inh	NS1 inh	Cruzain Triton	2A StopGo	SARS PLP yeast	Cruzain inh noDet	RE007 growth inh
Cc1coc2c1c(C)cc1oc(=O)c(Cc3ccccc3)c(C)c12	3%	-6%	10%	5.2%	3%	-1%	-19%	1%
Cc1ccc(-n2nc(C(=O)N3CCOCC3)cc2-c2ccc(Cl)cc2)cc1	?	?	-12%	-5.8%	-26%	-7%	73%	20%
Cc1oc2ncn(CC(C)C)c(=O)c2c1C(=O)N1CCN(c2ccc(F)cc2)CC1	26%[46.1 µM]	.	.	0.2%	-6%	.	15%	.
CC(C)CCN(C(=S)Nc1cccc(C(F)(F)F)c1)C(C)c1ccccn1 (stereo not drawn)	.	.	-71%	.	6%	0%	.	-14%
CCOc1cccc2sc(N(CCN(C)C)C(=O)c3ccc(Br)s3)nc12	-6%[46.1 µM]	7%[46.1 µM]	.	.	-10%	1%	.	-14%
Cc1ccc(C(C)C)cc1OCC(=O)Nc1ccc(N2CCCCC2)cc1	-2%	-9%	.	.	?	1%	.	-8%
Cc1ccccc1NC(=O)COC(=O)c1cccnc1	.	.	5%	.	-2%	0%	.	-18%
CCCSCCCNC(=O)C1CCN(C(=O)c2cc3sccc3n2C)CC1	.	6%[46.1 µM]	.	-5.7%	-19%	.	?	.
CCOC(=O)c1cc2c(=O)n3ccccc3nc2n(Cc2ccco2)c1=NC(=O)c1ccccc1OCC	-10%	-10%[46.1 µM]	.	.	20%	0%	.	2%
O=C(c1ccc(Br)o1)N1CCC(c2nc3ccccc3[nH]2)CC1	7%[46.1 µM]	5%	.	.	-17%	-8%	.	?
CCOc1ccc(OCC(=O)Nc2ccc(OC)cc2[N+](=O)[O-])cc1	13%	?	3%	.	-19%	22%	.	-4%
CCOC(=O)c1sc(NC(=O)C(C)Oc2ccc(OC)cc2)c(C(=O)OCC)c1C (stereo not drawn)	7%[46.1 µM]	.	.	0.9%	-28%	.	7%	.
Cc1ccc(-c2nnc(SCc3nc4ccccc4[nH]3)n2Cc2ccco2)cc1	0%	?	15%	-3.0%	5%	-24%	-1%	-18%
Cc1ccc(OCc2nc(-c3ccc(C(=O)N4CCN(c5cc(Cl)ccc5C)CC4)cc3)oc2C)cc1	.	?	.	1.3%	?	.	0%	.
COc1cc(S(=O)(=O)NCC(c2ccco2)N2CCCCC2)ccc1NC(C)=O (stereo not drawn)	16%	-3%	.	.	-15%	3%	.	5%
[O-][n+]1c2ccccc2[n+]([O-])c2cc(O)ccc21	?	?	-3%	.	0%	-4%	.	?
O=C(NCCSCc1ccco1)c1ccc(CN2CCOCC2)cc1	?	27%	2%	4.7%	.	2%	-2%	-14%
Cc1cc(C2C(C#N)=C(N)OC3=C2C(=O)CCC3)c(C)s1 (stereo not drawn)	4%	7%	9%	-0.1%	3%	2%	1%	-14%
O=C(NCc1ccc(F)cc1)c1ccc(CS(=O)(=O)Cc2ccccc2F)o1	?	12%	-4%	2.6%	?	4%	-1%	-9%
O=C(NC(Cc1ccccc1)C(=O)OCC(=O)N1CCc2ccccc21)c1ccco1 (stereo not drawn)	0%	-3%	-46%	-4.0%	15%	-22%	?	2%
CC(=NC1CC1)c1c(-c2ccccc2)[nH]n(-c2nc3ccccc3s2)c1=O	0%	?	2%	-5.6%	-10%	4%	-17%	3%
O=C(CSc1n[nH]c(=O)[nH]c1=O)N/N=C/c1ccccc1O	-7%	1%	6%	-1.5%	28%	20%	-7%	26%
NS(=O)(=O)c1ccc(CCNCc2ccccc2OCc2ccc(F)cc2)cc1	?	.	0%	.	?	-3%	.	-1%
CCOC(=O)c1nc(NCc2ccc(Cl)cc2)c2c(C)noc2n1	12%[46.1 µM]	.	.	-5.6%	-12%	.	-19%	.
N#Cc1c(NC(=O)Cn2c(=O)oc3ccccc32)oc(-c2ccccc2)c1-c1ccccc1	-6%	2%	-16%	-6.3%	-25%	-4%	?	3%
Cn1c(Cc2ccc3c(c2)OCO3)nnc1SCC(=O)N1CCc2ccccc2C1	-11%	8%	0%	5.5%	10%	5%	-7%	17%
CCOc1ccc(CN2CCN(c3ncnc4scc(-c5ccccc5)c34)CC2)cc1	-18%	0%	0%	.	?	1%	.	-7%
O=C(O)CCNc1ccc(Cl)cc1	.	.	6%	.	4%	-1%	.	18%
CCCn1c(SCC(=O)c2cc(OC)ccc2OC)nc2c1c(=O)n(C)c(=O)n2C	-10%	6%&6%	0%	2.6%	-8%	5%	1%	-3%
O=C(NNC(=S)Nc1ccccc1)c1cccnc1	.	.	-1%	.	35%[activator]	-1%	.	8%
Cc1sc2nc(CSCC(=O)Nc3c(Cl)cccc3Cl)[nH]c(=O)c2c1C	-18%	?	10%	5.9%	-27%	21%	-21%	-6%
NS(=O)(=O)c1ccc(NC(=O)c2csnn2)cc1	?	3%[46.1 µM]	.	-15%	5%	.	-13%	.
CCCn1c(SCc2nc(-c3ccccc3OCC)no2)nnc1-c1ccc(Cl)cc1	?	-16%[46.1 µM]	.	-9.2%	-14%	.	4%	.
O=C(O)c1ccc2c3c(cccc13)C(=O)N(OS(=O)(=O)c1ccccc1)C2=O	-3%[46.1 µM]	7%[46.1 µM]	6%	.	24%	-1%	.	-8%
O=C(Nc1ccc(S(=O)(=O)NC2=NCCCCC2)cc1)c1ccc(C(F)(F)F)cc1	.	.	-65%	.	?	1%	.	6%
CCCC(=O)Nc1ccc2oc(-c3ccc(O)c(Br)c3)nc2c1	?	?	.	-0.2%	32%[activator]	.	4%	.
CN(C)C1(c2nnnn2-c2ccc(Cl)cc2)CCCCC1	.	.	-38%	1.3%	-19%	-4%	-1%	-18%
Cc1c(Cl)cccc1NC(=O)CSc1nnc(CCNC(=O)OC(C)(C)C)o1	-9%	-18%	6%	0.5%	-23%	5%	7%	17%
COc1ccc(-c2nnc(N(C)C(=O)C3CCOC3)s2)cc1 (stereo not drawn)	14%	?	.	.	-3%	.	.	-3%
Cc1ccc(-n2nc3c(N4CCC(C(=O)NCc5ccccc5C)CC4)nnc(C)c3c2C)cc1	.	.	5%	.	-18%	-1%	.	3%
COc1ccc(-c2nnn(CC(=O)c3ccc4c(c3)OCCO4)n2)cc1OC	?	?	-9%	-7.3%	?	-8%	?	-3%
CCCC(C)NC(=O)C1c2ccccc2Oc2ccccc21 (stereo not drawn)	.	.	21%	.	-13%	5%	.	10%
O=C(N/N=C/c1cn(-c2ccccc2)nc1-c1cc2ccccc2o1)c1ccccc1Br	?	10µM*	28%	-3.8%	0%	27%	7.9µM*	1%
COc1ccc(-c2cc(=O)oc3cc(OCC(=O)c4cccc([N+](=O)[O-])c4)ccc23)cc1	3%	34%	?	-8.4%	.	-16%	25µM*	.
CCN1CCN(C(=O)CN(c2cc(OC)ccc2OC)S(C)(=O)=O)CC1	3%	-1%	14%	-1.2%	-10%	6%	-9%	-4%
O=C(CN1C(=O)C2C3C=CC(C4CC34)C2C1=O)Nc1cccc2ncccc12 (stereo not drawn)	-1%	5%	-12%	.	1%	0%	.	-6%
COc1ccc(/C=N/n2c(C)nnc2C)c(OC)c1OC	13%	-9%	7%	0.0%	22%	10%	17%	13%
CCOc1ccc2ccccc2c1C1NC(=O)N(C)C(C)=C1C(=O)OCCOC (stereo not drawn)	.	.	-8%	.	-8%	5%	.	-19%
COc1ccc(OCC(=O)Nc2nc(-c3ccc(Br)cc3)ns2)cc1	1%[46.1 µM]	1%[46.1 µM]	.	-4.5%	-6%	.	-10%	.
COc1cc(C(=O)C(=O)c2ccc(OC)c(OC)c2)ccc1O	-29%[46.1 µM]	4%[46.1 µM]	.	.	20%	.	.	-5%
C/C(=N/NC(=O)CNC(=O)c1cccnc1)c1cccc([N+](=O)[O-])c1	6%	-4%[46.1 µM]	.	.	-10%	-1%	.	-1%
CC(=O)Nc1cc(NC(C)=O)cc(C(=O)NCC2(N3CCOCC3)CCCCC2)c1	?	4%&4%	.	.	-14%	0%	.	-2%
COc1ccc(C2CC(c3ccc(OC)cc3)n3nc(NS(C)(=O)=O)nc3N2)cc1 (stereo not drawn)	.	.	6%	.	-2%	0%	.	8%
COC(=O)c1sc(NC(=S)NNC(=O)c2c(Br)c(C)nn2C)c(C(=O)OC)c1C	.	.	8%	.	?	6%	.	3%
COc1cccc(/C=N/n2c(-c3n[nH]c4c3CCC4)n[nH]c2=S)c1O	9%	?	5%	-6.1%	-28%	8%	6%	5%
COc1ccc(CCNC(=O)CCCn2c(=O)c3cccn3c3cccnc32)c(OC)c1OC	.	.	-2%	.	-23%	4%	.	12%
COc1ccc(Cl)cc1C(=O)NNC1CC(=O)N(Cc2ccc(Cl)cc2)C1=O (stereo not drawn)	0%	-14%	4%	-3.6%	-19%	-5%	-2%	2%
CCCOc1ccc(/C=C/C(=O)Nc2sc(C)c(C)c2C(=O)OCC)cc1OC	9%[46.1 µM]	.	.	-2.0%	-1%	.	0%	.
Clc1ccc(CO/N=C/c2c(-c3ccccc3)nc3n2CCS3)c(Cl)c1	?	?	26%	-3.6%	-27%	-2%	-21%	-13%
CCO/N=C(/c1nonc1N)N1CCN(c2ccc([N+](=O)[O-])cc2)CC1	-12%	0%	5%	-9.2%	-21%	3%	-8%	5%

Further records follow.
SMILES	Lassa entry inh	Marburg entry inh	NS1 inh	Cruzain Triton	2A StopGo	SARS PLP yeast	Cruzain inh noDet	RE007 growth inh
Cc1cccc(NC(=O)CCC2CCN(Cc3nccs3)CC2)c1	.	.	3%	.	-3%	6%	.	-1%
COC(=O)Cc1ccc(NC(=S)NCc2ccccc2Cl)cc1	?	6%	-12%	-3.8%	46%[activator]	-6%	-4%	36%
Cn1c(=O)c2c(ncn2Cc2ccc(Cl)c(Cl)c2)n(C)c1=O	-15%	?	-10%	-1.6%	?	4%	-10%	15%
CCc1ccc(OCC(=O)NNC(=O)Cc2cccs2)cc1	?	4%	-5%	-1.8%	8%	-24%	7%	-16%
